Calb FLC: C. albicans growth modulation with fluconazole | 0.57% of 300,000 active | C. albicans CaCi-2 (fluconazole-resistant clinical isolate) + fluconazole, Alamar Blue growth, 48 h | growth inhibition, % (test concentration not listed);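 active = most replicates above 75%; inconclusive = exactly half above 75%; inactive = most below 75%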;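 note: all wells also contain fluconazole at 8 µg/ml as a sub-toxic cotreatment; 0% = median of DMSO wells and 100% = median of geldanamycin control wells; wells of about 8 µL received 7.5 nL stock; the first replicate is given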
LANA-H2B inh: blocks KSHV LANA binding to histone H2A/H2B. Q9QR71. cell-free LANA-H2A/H2B peptide, fluorescence polarization. inhibition, % (concentration not given with the values). 0.6% of 320,000 active; in the data active = inhibition mostly above about 10%, no sharp cut-off; inactive = mostly below about 6.7%;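 note: stock transfer was 7.5 nL into about 10 µL; 0% = median of vehicle wells and 100% = median of positive control wells; one replicate is shown; the record names a cut of 25% in any replicate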
Vif A3G: HIV-1 Vif–A3G interaction blockers – biochemical, TR-FRET, GST-Vif 1-94, biotin-A3G peptide, dose response retest, primary screen (AID 1117319); inhibition, %; hits with a dose series show IC50 in µM; 0.57% of 260,000 active; TR-FRET GST-Vif / biotin-A3G peptide binding; higher % means a stronger effect; test concentration not given here; strong numbers were not always called active;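 active = above the screen mean plus three standard deviations and confirmed in dose response; inconclusive = results disagree or hit not tested in dose response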;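 note: Vif residues 1-94 fused to GST binding biotinylated APOBEC3G peptide 110-148; 0% = full assay without inhibitor and 100% = GST in place of GST-Vif; retest series ran down from 100 µM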
Beta2AR agonist: agonists of human beta-2 adrenergic receptor inducing internalization. P07550. Am2.2-beta2AR cells, FAP receptor internalization, flow cytometry; reference of the scale not given here. response, % (concentration not given with the values). 0.43% of 340,000 active. AID 504454;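 active = response above a set limit, near 3 SD of response in nonfluorescent compounds, cut at about 42% in these data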;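 note: stock transfer was 100 nL into about 11 µL; a reference agonist was the positive control; negative values mostly stem from fluorescent compounds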
Target sequence (P07550 whole entry, looked up): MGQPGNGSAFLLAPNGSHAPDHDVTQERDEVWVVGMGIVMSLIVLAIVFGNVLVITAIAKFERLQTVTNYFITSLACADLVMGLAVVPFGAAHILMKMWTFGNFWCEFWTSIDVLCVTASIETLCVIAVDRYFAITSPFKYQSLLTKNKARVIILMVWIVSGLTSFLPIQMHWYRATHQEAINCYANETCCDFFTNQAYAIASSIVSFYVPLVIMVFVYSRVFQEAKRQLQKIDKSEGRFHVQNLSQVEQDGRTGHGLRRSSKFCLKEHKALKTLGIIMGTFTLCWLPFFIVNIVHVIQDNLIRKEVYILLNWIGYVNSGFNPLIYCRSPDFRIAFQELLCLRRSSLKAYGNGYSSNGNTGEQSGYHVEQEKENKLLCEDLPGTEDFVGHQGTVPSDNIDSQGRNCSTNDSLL
RanGTP-Imp inh: inhibitors of RanGTP-importin-beta interaction, primary screen, biochemical, FRET, CFP-Ran, YFP-importin-beta, homogeneous | AID 2216 | cell-free CFP-Ran/YFP-importin-beta FRET ratio | inhibition, % (concentration not given with the values) | 1.1% of 300,000 active;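 active = most replicates above 15%; inconclusive = exactly half above 15%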;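 note: 0% = DMSO wells and 100% = Ran loaded with GDP instead of GTP; wells of about 40 µL received 100 nL stock; the first replicate is given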
HNF4A DNA FP: change in binding of human HNF4 alpha to DNA | activity change, % at 10 µM | 0.3% of 360,000 active | HNF4a-FITC DNA binding, fluorescence polarization, 1 h | AID 1224865; in the data active = activity change above about 30%, passing the limit was not always enough;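 note: controls were the assay level and a saturating level of protein; the project sought stronger binding though the title names inhibitors; some compounds called inactive have numbers as strong as hits; positive values seem to mean higher polarization but the record does not say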
Target sequence (P41235 whole entry, looked up): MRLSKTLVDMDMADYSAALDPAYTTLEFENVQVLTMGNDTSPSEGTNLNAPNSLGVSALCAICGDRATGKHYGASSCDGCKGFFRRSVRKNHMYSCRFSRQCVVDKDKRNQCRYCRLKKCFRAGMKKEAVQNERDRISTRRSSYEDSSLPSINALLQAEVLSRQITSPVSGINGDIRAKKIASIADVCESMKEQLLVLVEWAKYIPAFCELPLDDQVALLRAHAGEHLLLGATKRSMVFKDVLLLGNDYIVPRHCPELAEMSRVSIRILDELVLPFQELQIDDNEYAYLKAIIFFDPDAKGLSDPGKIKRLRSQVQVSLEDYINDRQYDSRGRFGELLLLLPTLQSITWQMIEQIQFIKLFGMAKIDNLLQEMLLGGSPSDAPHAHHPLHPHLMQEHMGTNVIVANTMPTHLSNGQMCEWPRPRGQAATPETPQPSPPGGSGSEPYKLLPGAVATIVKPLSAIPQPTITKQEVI
ALR inh: blocks human ALR sulfhydryl oxidase activity | P55789 | purified ALR, DTT oxidation, H2O2 HRP-luminol luminescence | inhibition, % (test concentration not listed) | 3.8% of 290,000 active | AID 485317;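 active = mean and each replicate at 75% or more; inconclusive = only one of the two met; inactive = neither met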;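 note: stock transfer was 7.5 nL into about 7.5 µL; 0% = neutral wells and 100% = wells with inactivated enzyme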
Target sequence (P55789 whole entry, looked up): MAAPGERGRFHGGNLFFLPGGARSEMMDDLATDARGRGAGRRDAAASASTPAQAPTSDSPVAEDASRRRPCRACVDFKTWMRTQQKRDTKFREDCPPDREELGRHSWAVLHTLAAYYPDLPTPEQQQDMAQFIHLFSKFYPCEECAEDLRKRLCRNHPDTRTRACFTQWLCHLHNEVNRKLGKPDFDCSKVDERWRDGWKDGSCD
* marks the source's active call; other numbers are inactive results; ? = inconclusive; nt = no result given.

nr	mol	Calb FLC	LANA-H2B inh	Vif A3G	Beta2AR agonist	RanGTP-Imp inh	HNF4A DNA FP	ALR inh
1	Cc1cccc(NC(=S)N(CCCN(C)C)Cc2cc3cc4c(cc3[nH]c2=O)OCO4)c1	-1	2.0	6%	-1	-3.2	1.6	-4
2	O=C(c1cccc(S(=O)(=O)N2CCOCC2)c1)N1CCC(Cc2ccccc2)CC1	nt	-3.3	nt	5	nt	-0.1	-2
3	O=C(CCS(=O)(=O)c1ccc(Br)cc1)Nc1ccc(Br)cc1F	2	-3.1	nt	-3	2.1	-4.1	-2
4	O=C(Nc1ccccc1N1CCOCC1)C1CCCO1 (stereo not given)	nt	5.4	nt	-2	nt	0.6	nt
5	COCCNC(=O)c1cc(-c2ccccc2C)n(CC2CC(c3cccc([N+](=O)[O-])c3)=NO2)n1 (stereo not given)	nt	-6.6	nt	-3	nt	-2.6	-3
6	CCOCC(=O)Nc1ccc(S(=O)(=O)NCCc2ccccc2)cc1	-24	-5.8	-3%	-3	2.6	1.4	60
7	CCOc1ccc(NC2=NC(C(=O)NCc3ccccc3)CC(=O)N2)cc1 (stereo not given)	-2	3.1	-4%	-9	-4.0	-3.4	-5
8	CCOc1ccc(CCNC(=O)COC(=O)c2nn(C)c(=O)c3ccccc23)cc1OCC	-8	12*	nt	0	-0.2	3.9	5
9	COc1ccc(N/C(=N/c2nc(C)cc(C)n2)NC(=O)c2ccccc2)cc1	-6	-1.2	0%	-9	-3.3	-3.5	-34
10	O=C(Nc1ccc(Cl)cc1)C(Cl)C(=O)c1ccccc1 (stereo not given)	0	2.0	nt	26	1.7	-1.5	17
11	Cc1ccc(NC(=O)/C=C\C(=O)NCC(=O)O)cc1	38	-0.3	?	-5	0.4	6.1	5
12	CCOc1cc(C)nc(N2CCN(C3CCCCC3)CC2)n1	-79	8.4	0%	0	0.7	-1.2	-2
13	Cc1ccc(/C(O)=C2\C(=O)C(=O)N(c3cc(C)on3)C2c2cccc(Cl)c2)cc1 (stereo not given)	41	-0.7	11%	-1	0.2	-0.9	6
14	COCCCNC(=O)c1ccc(CS(=O)(=O)c2cccc(C(F)(F)F)c2)o1	-5	-0.2	-9%	2	-0.2	-1.2	nt
15	O=C(CSc1ncn(-c2ccccc2)n1)Nc1nncs1	-1	1.8	4%	17	-2.7	-0.7	-17
16	O=C(COC(=O)c1ccccc1Cl)NC(=O)NCc1ccccc1	?	-4.5	30%	-6	9.9	0.8	-10
17	O=C(COC(=O)c1ccc2c(=O)n3c(nc2c1)CCC3)Nc1ccc(OC(F)F)cc1	5	-2.1	-4%	-8	2.0	-2.5	-13
18	O=C(COC(=O)CCC(=O)c1ccc(F)cc1)Nc1ccc(F)cc1F	-15	-1.2	0%	-1	4.4	2.1	-12
19	Cc1ccc(-n2c(SCC(=O)NCC3CCCO3)nnc2-c2ccoc2C)cc1 (stereo not given)	5	-3.0	0%	11	-3.6	-0.2	1
20	COc1cccc(-n2nc(C#N)c(Cl)cc2=O)c1	-7	nt	1%	84*	0.7	0.8	nt
21	C/C(=N\NC(=O)c1cccc(S(=O)(=O)N2CCCCC2)c1)c1ccc(C)o1	-4	-6.1	3%	9	nt	1.6	nt
22	Cc1ncc([N+](=O)[O-])n1CC(=O)Nc1cccc(C(F)(F)F)c1	1	2.9	nt	-1	0.9	0.5	-2
23	O=C(c1ccc2c(c1)OCO2)C1CCCN(Cc2cccn2-c2cccnc2)C1 (stereo not given)	0	-3.8	29%	-2	1.4	-2.3	-28
24	CCOC(=O)CCCCC(=O)c1[nH]c(=O)[nH]c1C[n+]1ccccc1	16	17*	nt	nt	?	nt	33
25	CCCC(=O)Nc1sc2c(c1C(=O)OCC)CC(C)(C)OC2	-4	-2.4	-1%	-4	0.9	1.5	nt
26	Cc1cc(OC(=O)c2ccccc2Cl)c([N+](=O)[O-])c(=O)[nH]1	-2	2.7	nt	4	?	0.0	3
27	CNC(=O)C(C)Sc1ccc(S(=O)(=O)N2CCOCC2)cn1 (stereo not given)	nt	-2.4	4%	-1	nt	0.6	-1
28	CN(C)CCCn1c2c(c(SCC(=O)Nc3cccc4ccccc34)nc1=O)CCC2	-1	1.3	1%	-8	-0.6	3.2	72
29	CN1CCN(C(=O)c2cnn(-c3ccccc3)c2NC(=O)c2ccccc2Cl)CC1	20	-24	nt	0	4.3	-6.7	-5
30	C#CCOCCOCCOCCNc1nc(N2CCOCC2)nc(N2CCN(C(=O)[C@H]([C@@H](C)CC)n3cc(CCCCN)nn3)CC2)n1	1	0.9	15%	4	3.3	3.1	-23
31	COc1ccc(NC(=S)Nc2ccc3nsnc3c2)cc1	-17	-2.2	15%	3	0.8	-4.0	6
32	Cc1c(C(=O)NC2CCCC2)oc2ccccc12	nt	1.4	2%	-2	nt	2.5	5
33	O=C(NS(=O)(=O)Nc1ccc(Br)cn1)c1c[nH]c2ccccc12	4	4.0	nt	-7	-1.1	-0.2	-9
34	CC1Sc2n(c3ccccc3[n+]2C)N=C1c1ccccc1 (stereo not given)	-3	0.7	nt	-7	?	-3.6	-3
35	Cc1ccc(S(=O)(=O)N2CC(C(=O)O)=CC[C@H]2c2ccc3c(c2)OCO3)cc1	nt	3.7	nt	-2	nt	2.0	-5
36	CN(CC/C=C1/c2ccccc2CSc2ccccc21)CCCO	3	1.4	6%	8	-0.3	2.2	-3
37	CCN(CC)S(=O)(=O)N1CCC(C(=O)NC(C)CCc2ccccc2)CC1 (stereo not given)	4	-4.2	-4%	9	-2.8	-0.7	-4
38	COc1nc(C)nc2c1ccc1ccccc12	-1	2.8	19%	0	?	-2.2	-2
39	O=C(NCc1ccco1)C1CCCN1C(=O)Nc1cccc(Cl)c1 (stereo not given)	-8	-0.4	7%	-4	-2.2	0.8	-2
40	COc1ccc(C2CN=NC23CCCc2ccccc2C3=O)cc1 (stereo not given)	4	3.1	-1%	-8	-0.7	1.8	14
41	Cc1ccc(NC(=O)Cc2n[nH]c(=O)c3ccccc23)cc1S(=O)(=O)N1CCCCCC1	nt	0.5	-8%	1	nt	-1.2	-2
42	CNS(=O)(=O)c1cc(NC(=O)c2cnc(SC)n2-c2ccccc2)ccc1C	2	0.6	0%	-9	2.8	-1.3	-1
43	Clc1cccc(CSc2nnc([C@@H]3CCCN3)o2)c1	-27	-0.8	-6%	5	5.3	-1.0	22
44	COc1ccc(-c2nc(CSCC(=O)NC3CCCC3)c(C)o2)cc1OC	-4	-0.3	0%	-3	3.3	-4.0	99*
45	COc1ccccc1C(=O)NCCC(=O)NC(C)CCc1ccccc1 (stereo not given)	6	-1.0	6%	-1	nt	3.1	-10
46	Cc1cc(S(=O)(=O)N2CCN(CC(=O)NC(C)(C#N)C3CC3)CC2)ccc1Br (stereo not given)	nt	nt	-6%	-2	nt	0.2	nt
47	CC1(C)C(=O)OC(c2cccn2-c2cccc([N+](=O)[O-])c2)C2(CCCCC2)C1=O (stereo not given)	22	-1.1	nt	nt	1.3	nt	-51
48	COc1ccc([C@@H]2CC=C(C(=O)O)CN2S(=O)(=O)c2ccc(C)cc2)cc1OC	nt	-5.1	nt	-6	nt	0.2	-6
49	Cc1ccc(C(=O)N/C(=C\c2cn(S(=O)(=O)N(C)C)c3ccccc23)C(=O)N2CCCC2)cc1	6	11	5%	-17	-0.2	7.4	-4
50	CCOc1ccccc1C(=O)NC(C(=O)NCc1ccccc1OC)C(C)C (stereo not given)	-3	0.0	5%	4	4.7	4.7	2
51	O=S(=O)(c1cccc2cccnc12)N1CCCc2ccccc21	-4	4.5	1%	-7	?	-1.7	1
52	CCC(=O)N/N=C/c1ccc(OS(=O)(=O)c2ccccc2)cc1	2	6.2	nt	1	-0.6	-0.8	-8
53	O=C(COC(=O)CCc1nc2ccccc2s1)NCc1ccco1	19	-5.8	nt	-12	?	2.8	0
54	NC(=O)N/N=C/c1cn(-c2ccccc2)nc1-c1ccccc1	9	-6.5	2%	10	0.4	-0.1	-8
55	Cc1nc(-c2ccccc2)sc1C1(C)CC(c2cccc([N+](=O)[O-])c2)=NO1 (stereo not given)	5	-1.6	4%	-3	3.4	-4.9	3
56	Cn1c(=O)cc(SCC(=O)N2CCN(c3ccccn3)CC2)c2ccccc21	1	5.3	-4%	-1	0.9	-2.0	-6
57	Cc1noc(C)c1S(=O)(=O)N(C)C[C@H]1Oc2ccc(NC(=O)C3CCCCC3)cc2C(=O)N([C@H](C)CO)C[C@@H]1C	nt	5.8	nt	-8	nt	2.5	0
58	Cc1ccc2c(C)ccc(O)c2n1	-11	3.7	-3%	10	4.6	1.4	-5
59	COc1ccccc1NC(=S)N1CCN(Cc2ccc3c(c2)OCO3)CC1	-19	-8.0	nt	2	0.8	-1.6	-27
60	CCC1SC2=NC(C)=C(C(=O)OCCOC)C(/C=C/c3ccccc3OC)N2C1=O (stereo not given)	20	14	2%	0	3.1	-4.7	-7

Next section.
nr	mol	Calb FLC	LANA-H2B inh	Vif A3G	Beta2AR agonist	RanGTP-Imp inh	HNF4A DNA FP	ALR inh
61	COc1ccc(N=Cc2ccc[nH]2)cc1	-2	5.2	7%	21	3.2	-0.2	-11
62	O=C(O)CCn1c(=O)c2ccccc2c2ccccc2c1=O	-6	2.1	-4%	-3	3.1	-2.5	-1
63	Nc1ccc(Sc2cc(Cl)nc(N)n2)cc1	10	-4.5	68%	nt	-1.6	nt	nt
64	CNc1ccc(OC)cc1-n1cnc(-c2ccc([N+](=O)[O-])cc2)c1	101*	-5.0	-3%	0	8.1	4.6	8
65	Cc1cc(C)c(NC(=S)NC(CO)(CO)CO)c(C)c1	-4	4.8	-4%	-2	-0.4	-2.3	-1
66	CCCCc1ccc(N2C(=O)[C@@H]3C(CC(N)=O)NC4(C(=O)Nc5ccc(F)cc54)[C@@H]3C2=O)cc1 (stereo not given in full)	35	6.3	2%	-3	1.9	0.7	-6
67	Cc1ccc(OCC(=O)NCc2ccccn2)cc1	nt	-1.8	-1%	0	0.4	-1.0	-1
68	C[C@@H]1COC(=O)[C@@H](Cc2ccc(F)cc2)CC/C=C\C[C@@H](CC(=O)NCCO)C(=O)N1	nt	5.8	nt	-5	nt	2.0	-3
69	NC(=O)[C@@H]1CC2(CC(c3cccc(NC(=O)COc4ccc(Cl)cc4)c3)=NO2)CN1C(=O)COc1ccc(Cl)cc1 (stereo not given in full)	22	-0.8	?	9	0.4	1.1	0
70	CN1CCCC(C#CC(O)(c2ccccc2)c2ccccc2)C1 (stereo not given)	0	1.9	5%	6	-1.9	-0.6	-2
71	Cc1ccc(Cl)cc1N1CCN(S(=O)(=O)c2c(C)[nH]c(=O)[nH]c2=O)CC1	7	2.2	3%	1	3.1	1.8	-1
72	O=C(NCCOc1ccccc1)c1n[nH]c(=O)c2ccccc12	2	0.0	-1%	-2	4.2	-1.8	3
73	O=C(O)c1ccccc1C(=O)Nc1n[nH]c(=S)s1	?	4.1	2%	-3	-0.6	0.6	54
74	Cc1ccc(C(=O)C2C(c3ccc(-c4ccccc4[N+](=O)[O-])o3)NC(=O)NC2(O)C(F)(F)F)cc1 (stereo not given)	-8	-1.7	nt	10	7.5	-2.1	-29
75	CSc1nnc(Cn2c(=O)sc3ccccc32)n1-c1ccccc1	-2	-0.4	3%	-4	-4.8	2.3	-5
76	Cc1c(NC(=S)NC(=O)CSc2ccc(Cl)cc2)cccc1C(=O)O	-6	2.6	nt	-3	0.2	-3.6	7
77	CC(=O)N1CCc2cc(S(=O)(=O)CCC(=O)N3CCC(C)CC3)ccc21	3	-4.7	nt	-9	3.4	2.0	-6
78	COc1cc2c(cc1N)-c1ccc(N)cc1C2	nt	nt	>100µM*	2	nt	-42	nt
79	Cc1cc(=O)oc2c(C)c(OCC(=O)NCCc3ccc(S(N)(=O)=O)cc3)ccc12	-2	1.2	nt	5	1.3	5.6	-2

Rows were taken by chance (roughly 6.3% active in at least one column).
